Bioassay records: PubChem, Johns Hopkins Ion Channel Center
KCNQ2 block = KCNQ2 potassium channel inhibitors, primary screen, cell-based, CHO-K1, FluxOR thallium flux, B-score (AID 2156) | 310,000 compounds, 1.1% hits | 20 min; hits give low values; only compounds with negative scores are shown here; some inactives read as strong as hits | Potassium voltage-gated channel subfamily KQT member 2 (Rattus norvegicus), O88943 | B-score at 10 µM;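 active means fluorescence ratio B-score at most minus 3 library SDs, with starting brightness B-score within 2 library SDs, cut at about -5.5 in these data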
Target sequence (O88943 whole entry, looked up): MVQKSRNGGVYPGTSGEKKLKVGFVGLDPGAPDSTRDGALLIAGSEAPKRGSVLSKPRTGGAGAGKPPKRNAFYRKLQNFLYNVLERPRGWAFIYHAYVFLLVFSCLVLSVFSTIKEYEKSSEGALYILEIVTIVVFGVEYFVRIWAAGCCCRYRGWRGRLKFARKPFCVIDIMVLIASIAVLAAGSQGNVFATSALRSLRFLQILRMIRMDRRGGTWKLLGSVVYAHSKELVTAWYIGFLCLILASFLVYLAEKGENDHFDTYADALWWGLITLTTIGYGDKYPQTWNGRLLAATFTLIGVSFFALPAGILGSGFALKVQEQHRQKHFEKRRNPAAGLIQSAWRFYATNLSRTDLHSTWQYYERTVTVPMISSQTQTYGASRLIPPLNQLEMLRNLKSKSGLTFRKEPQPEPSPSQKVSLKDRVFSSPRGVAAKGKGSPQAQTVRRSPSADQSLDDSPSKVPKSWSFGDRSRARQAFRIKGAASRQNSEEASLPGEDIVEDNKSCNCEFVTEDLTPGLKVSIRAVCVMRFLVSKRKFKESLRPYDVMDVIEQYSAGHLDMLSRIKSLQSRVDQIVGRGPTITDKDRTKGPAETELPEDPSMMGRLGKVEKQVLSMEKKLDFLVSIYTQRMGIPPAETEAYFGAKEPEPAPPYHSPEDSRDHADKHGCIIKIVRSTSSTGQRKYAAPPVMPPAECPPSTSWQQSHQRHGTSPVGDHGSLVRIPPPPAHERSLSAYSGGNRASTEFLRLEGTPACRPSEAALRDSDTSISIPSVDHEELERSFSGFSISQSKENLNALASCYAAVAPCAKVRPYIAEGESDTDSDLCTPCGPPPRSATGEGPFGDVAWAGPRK
KCNQ2 block baseline = recorded beside KCNQ2 block, whose call it bears; B-score; measured here: initial fluorescence intensity artifact check;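 brightness before thallium and not channel activity; 0 = typical well and far values either way flag optical interference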
Starred values were filed as active, the others as inactive; i = inactive. Some of the compounds tested; rates above refer to the full screens.

SMILES	KCNQ2 block	KCNQ2 block baseline
Oc1ccccc1N1CCN(C(c2ccccc2)c2ccccc2)CC1	i	-0.01
Cc1nc2ccc(NC(=O)COc3cccc(F)c3)cc2s1	i	-0.54
NC(=O)C1(N2CCCCC2)CCN(C(=S)Nc2ccc(F)cc2)CC1	i	-0.62
COc1ccc2nc(-c3ccccc3)cc(OC)c2c1	i	1.9
CC1C(=O)N2CCCc3cc(NS(=O)(=O)c4ccc(F)cc4)cc1c32 (stereo not drawn)	i	0.34
COc1ccc(CCNS(=O)(=O)c2ccc3c(c2)oc(=O)n3C)cc1OC	i	0.06
CCC(=O)Nc1ccc(/C(C)=N\NC(=O)c2ccc(OC)cc2)cc1	i	-0.54
CCOC(=O)c1c(CN(CC)CC)n(-c2ccccc2)c2ccc(O)cc12	i	0.02
CC(C)C(=O)Nc1oc(-c2ccccc2)cc1C#N	i	0.26
CCn1c(C)nc2c(C)[n+](CC(=O)c3ccc(Br)cc3)ccc21	i	1.7
Cc1cc(-c2nnc(CSc3nnc(NC(=O)c4ccc(C(C)(C)C)cc4)s3)o2)ccc1[N+](=O)[O-]	i	-1.1
CCOc1ccc(NC(=O)c2ccc(CN3CCc4ccccc4C3)cc2)cc1	i	0.81
CCOC(=O)C(CN1CCCC1)c1ccccc1 (stereo not drawn)	i	0.03
CCOc1ccc(CCNC(=O)CSCC(=O)Nc2cccc(C)c2)cc1OCC	i	1.6
CN(C)CCNC(=S)Nc1ccc(Br)cc1	i	0.07
Cc1ccc2cccc(OC(=O)c3ccc4c(c3)OCCO4)c2n1	i	1.6
COc1ccc(C(=O)N/C(=C\c2cn(C)c3ccccc23)C(=O)N2CCOCC2)cc1OC	i	0.79
O=C(Nc1ccccn1)c1ccc(Br)c(S(=O)(=O)N2CCCCC2)c1	i	-0.14
CC(C)CN(Cc1cc(=O)oc2cc3c(cc12)CCCC3)CC(C)C	i	1.6
CCOc1ccc(CCNC(=O)c2cc(=O)[nH]c3ccc(S(=O)(=O)N(CC)CC)cc23)cc1OCC	i	0.98
O=C(O)COc1ccccc1/C=N/NC(=O)c1cccc(S(=O)(=O)Nc2cccc(Cl)c2)c1	i	2.7
O=C(/C=C/c1ccco1)Nc1cccc(-c2nc3ccccc3[nH]2)c1	i	-0.69
CO/N=C(\C(=O)N[C@@H]1C(=O)N2C(C(=O)O)=C(COC(C)=O)CS[C@H]12)c1csc(N)n1 (stereo in doubt)	i	0.07
CC(Sc1nc2cc(Cl)ccc2s1)C(=O)Nc1cccc(S(=O)(=O)N2CCOCC2)c1 (stereo not drawn)	i	0.3
Cc1cccc(CCNc2nc3ccc(C)cc3n3cnnc23)c1	i	-0.67
COc1ccc(OC)c(-c2csc(N(C)C(=O)Cc3ccccc3)n2)c1	i	-1.7
COc1ccc(-c2cc(C(=O)Nc3c(C)n(C)n(-c4ccccc4)c3=O)c3ccccc3n2)c(OC)c1	i	-0.34
COc1ccc(NC(=O)Cc2ccccc2)cc1	i	3.4
COc1ccc(CCN2CC(C(=O)NCCc3ccccc3C(F)(F)F)CCC2=O)cc1 (stereo not drawn)	i	-0.03
COc1ccc(C)cc1NC(=O)c1ccc2c(O)c(S(=O)(=O)c3ccccc3)c(=O)[nH]c2c1	i	0.59
c1cc(-c2nnn(CCOCCn3nnc(-c4ccncc4)n3)n2)ccn1	i	-0.89
Cc1cc(=O)oc(C)c1C(=O)NCCc1ccccc1	i	-0.1
CCCCN(CCCC)CCNC(=O)c1cn(CC)c2ccc(S(=O)(=O)N3CCc4ccccc4C3)cc2c1=O	i	-2.3
Cn1c(=O)c2c(nc(N3CCOCC3)n2CC(=O)C23CC4CC(CC(C4)C2)C3)n(C)c1=O	i	1.4
COc1ccc(CC(=O)NNc2ncnc3c2cnn3-c2ccccc2)cc1	i	0.07
CC(C)(C)NC(=O)C(c1ccc(Cl)cc1)N(Cc1ccco1)C(=O)CCl (stereo not drawn)	i	-1.7
COC(=O)COc1ccc(-c2ccc(F)cc2)cc1C=O	i	0.12
CC1CN(CCCCSc2ccccc2)CC(C)O1 (stereo not drawn)	i	2.6
COCC(=O)Nc1nc2n(n1)C(c1ccc(OC)cc1)CC(c1ccc(OC)cc1)N2 (stereo not drawn)	i	2.2
CCC(=O)N(c1ccc(F)cc1)C1C=CS(=O)(=O)C1 (stereo not drawn)	i	0.04

Reprinted at random: 4 compounds from above
SMILES	KCNQ2 block	KCNQ2 block baseline
c1cc(-c2nnn(CCOCCn3nnc(-c4ccncc4)n3)n2)ccn1	i	-0.89
COCC(=O)Nc1nc2n(n1)C(c1ccc(OC)cc1)CC(c1ccc(OC)cc1)N2 (stereo not drawn)	i	2.2
COC(=O)COc1ccc(-c2ccc(F)cc2)cc1C=O	i	0.12
COc1ccc(CC(=O)NNc2ncnc3c2cnn3-c2ccccc2)cc1	i	0.07

Later entries:
SMILES	KCNQ2 block	KCNQ2 block baseline
COc1ccc(CCn2c(N)c(C(=O)NCc3ccco3)c3nc4ccccc4nc32)cc1OC	i	-0.09
O=C1C(=O)N(CCCO)C(c2ccc(Br)cc2)/C1=C(\O)c1ccc(Br)cc1 (stereo not drawn)	i	-0.77
CC(OC(=O)c1ccc(C(C)(C)C)cc1)C(=O)NC1CCCCC1C (stereo not drawn)	i	0.92
O=C(c1cccn2c(=O)c3cc4ccccc4cc3nc12)N1CCN(c2ccccc2)CC1	i	0.19
COc1ccc(CNC(=O)c2ccc(NS(=O)(=O)c3c(C)noc3C)cc2)cc1	i	1.1
CCOC(=O)N1CCC(NS(=O)(=O)c2ccc3c(c2)OCC(=O)N3)CC1	i	-1.3
OCCN1CCN(c2nc3ccccc3nc2-c2ccccc2)CC1	i	0.65
Cc1cccc2c(C(=O)N3CCN(c4ccccc4)CC3)cc(-c3ccncc3)nc12	i	0.01
CCOC(=O)COn1c(=O)c(-c2ccccc2)[n+]([O-])c2ccccc21	i	2
CC(=O)Nc1nc2c(C)cc(NC(=O)C3CCCCC3)cc2s1	i	-0.54
COc1ccc(C2NC(=O)C(C#N)=C(S)N2c2ccccc2)cc1OC (stereo not drawn)	i	0.91
CCOC(=O)C1C(=O)CC(C)(O)C(C(=O)OCC)C1c1ccc(SC)cc1 (stereo not drawn)	i	0.25
CCOC(=O)c1cc(C#N)c(Nc2ccc(C)cc2)nc1C(F)(F)F	i	-0.8
Cc1cc(C)c(OCCCNCc2ccccc2)c(Br)c1	i	1.9
Cc1ccc(C(=O)OCC(=O)c2ccc(Cl)s2)s1	i	1.9
COCCNC(=O)[C@H]1N2C(=O)c3ccccc3C2SC1(C)C (stereo partly drawn)	i	0.93
COc1cc2c(cc1NC(=O)COC(=O)CNS(=O)(=O)c1ccc(C)cc1)oc1ccccc12	i	0.59
O=C(NCc1ccccc1)N1CCC(c2nc3ccccc3[nH]2)CC1	i	0.03
Cc1ccc(Cl)cc1N1CCN(Cc2nc3ccsc3c(=O)[nH]2)CC1	i	-0.19
Cc1n[nH]c(=O)nc1N/N=C/c1ccc(O)c([N+](=O)[O-])c1	i	0.87

Ordered by number of heavy atoms (smallest number first): some entries from above.
SMILES	KCNQ2 block	KCNQ2 block baseline
Cc1ccc(C(=O)OCC(=O)c2ccc(Cl)s2)s1	i	1.9
Cc1n[nH]c(=O)nc1N/N=C/c1ccc(O)c([N+](=O)[O-])c1	i	0.87
COCCNC(=O)[C@H]1N2C(=O)c3ccccc3C2SC1(C)C (stereo partly drawn)	i	0.93
CCOC(=O)c1cc(C#N)c(Nc2ccc(C)cc2)nc1C(F)(F)F	i	-0.8
COc1ccc(C2NC(=O)C(C#N)=C(S)N2c2ccccc2)cc1OC (stereo not drawn)	i	0.91
CCOC(=O)C1C(=O)CC(C)(O)C(C(=O)OCC)C1c1ccc(SC)cc1 (stereo not drawn)	i	0.25
COc1cc2c(cc1NC(=O)COC(=O)CNS(=O)(=O)c1ccc(C)cc1)oc1ccccc12	i	0.59

Next part
SMILES	KCNQ2 block	KCNQ2 block baseline
CC1CC(C)CN(C(=O)COC(=O)c2cc(S(=O)(=O)N3CCOCC3)ccc2F)C1 (stereo not drawn)	i	-0.71
Fc1ccc(-c2csc(N3CCSCC3)n2)cc1	i	1.2
O=C(c1cc(=O)[nH]c2ccccc12)N1CCN(c2ccc([N+](=O)[O-])cc2)CC1	i	1.3
CCn1c(=N)c(S(=O)(=O)c2ccccc2)cc2c(=O)n3ccccc3nc21	i	0.16
Cc1nn(CCO)c2c1C(=O)CCC2	i	-1.8
O=C(NCC1CCCO1)c1cnc(Cl)c(Cl)c1 (stereo not drawn)	i	0.33
O=C(/C=C/c1ccc(O)c(O)c1)c1ccccc1O	i	-0.58
O=C(NCCSCc1ccco1)Nc1cc(Cl)cc(Cl)c1	i	-0.14
COc1ccc(S(=O)(=O)n2ccc(C(C)Oc3ccc(-c4ccccc4)c(F)c3)n2)cc1 (stereo not drawn)	i	-1.4
CCN(CC)S(=O)(=O)c1ccc(NC(=O)[C@@H](NC(=O)c2cc(OC)cc(OC)c2)C(C)C)cc1	i	-1.8
COc1ccc(OC)c(NC(=O)COC(=O)c2c3c(nc4ccccc24)CCCC3)c1	i	-0.03
Cc1ccc(-c2noc(CN3CCN(c4ccccc4F)CC3)n2)cc1	i	-1.6
COCCn1c(C)cc(/C=C2\NC(=S)N(C)C2=O)c1C	i	0.14
CCOC(=O)N1CCN(S(=O)(=O)c2ccc(C(=O)NNc3nc4ccc(Cl)cc4s3)cc2)CC1	i	1.4
O=C(Nc1nc(-c2ccccn2)cs1)c1ccccc1-n1cnnn1	i	0.94
Cc1c(NS(=O)(=O)c2cc(NC(=O)CCN3CCCC(C)C3)ccc2Cl)c(=O)n(-c2ccccc2)n1C (stereo not drawn)	i	0.67
C(=N\Nc1ncnc2sc3c(c12)CCC3)/c1ccncc1	i	0.02
COc1ccccc1-n1nnnc1SCc1ccccc1	i	0.21
Cc1ccc(N2Cc3ccccc3OC(C)C2=O)cc1 (stereo not drawn)	i	3
O=C(NCCN1CCN(S(=O)(=O)c2ccc([N+](=O)[O-])cc2)CC1)C(=O)Nc1ccccc1	i	-2.2

A portion from further up:
SMILES	KCNQ2 block	KCNQ2 block baseline
C(=N\Nc1ncnc2sc3c(c12)CCC3)/c1ccncc1	i	0.02
COc1ccccc1-n1nnnc1SCc1ccccc1	i	0.21

(further entries)
SMILES	KCNQ2 block	KCNQ2 block baseline
O=C(CC1Nc2ccccc2NC1=O)NC1CCCCC1 (stereo not drawn)	i	-0.03
c1cnc(SCCCOc2ccc3ccccc3c2)nc1	i	0.1
COc1ccc(NS(=O)(=O)c2ccc(-c3cnc(C4CC4)o3)cc2)cc1OC	i	0.09
Cc1nc(NCCCn2ccnc2)c2oc3ccccc3c2n1	i	5.8
COc1ccc(CN2CCC(=O)N([C@H](CO)Cc3ccccc3)CC2)cc1OC	i	2.3
Cc1ccc(C2(O)C(=O)c3ccccc3C2=O)c(O)c1C	i	-0.61
Cc1ccc(-n2ncc3c2CC(C)(C)CC3NC(=O)c2ccccn2)cc1 (stereo not drawn)	i	-0.36
CN(Cc1ccccc1)C(=O)c1cc2ccccc2o1	i	0.02
CCC(=O)N1c2ccc(S(=O)(=O)N3CCN(c4ccc([N+](=O)[O-])cc4)CC3)cc2CC1C (stereo not drawn)	i	0.46
CC(Oc1ccccc1)C(=O)Nc1cccc(-c2nc3ccccc3[nH]2)c1 (stereo not drawn)	-5.6*	-0.35*
CC(C)(C)c1ccc(C2=CC(c3ccccc3F)n3ncnc3N2)cc1 (stereo not drawn)	i	2.3
O=C(O)C(NC(=O)C1CCCN1C(=O)OCc1ccccc1)c1ccccc1 (stereo not drawn)	i	-0.31
Cn1c(=O)c2c(nc(NC3CCCCC3)n2CC(=O)C23CC4CC(CC(C4)C2)C3)n(C)c1=O	i	-1.3
Cc1cc(=O)n2nc(N3CCC(C(=O)Nc4c(F)c(F)c(F)c(F)c4F)CC3)sc2n1	i	-1.1
Cc1ccc(NC(=O)C(OC(=O)c2ccc(F)cc2)c2ccccc2)cc1Cl (stereo not drawn)	i	1.4
COc1ccc(C2CC(c3cccc(OC)c3)n3nc(N)nc3N2)cc1 (stereo not drawn)	i	1.7
CCCN1C(=O)N(c2cccc(C)c2)C(C)(O)CC1(C)C (stereo not drawn)	i	-2.2
CCN(CC)C(=O)CC(c1ccccc1)c1ccco1 (stereo not drawn)	i	-0.56
COc1ccc(NC(=O)CC(c2ccccc2)c2ccco2)cc1 (stereo not drawn)	i	0.86
COc1ccc(/C=N/NC(=O)c2ccc(Br)cc2)cc1Cn1cc(Cl)cn1	i	1.1
COc1ccccc1N1CCN(C(=O)C2CCN(S(=O)(=O)c3ccc4c(c3)CC(C)N4C(C)=O)CC2)CC1 (stereo not drawn)	i	-2.5
CN(c1cccc(NC(=O)c2ccccc2N(C)S(C)(=O)=O)c1)S(C)(=O)=O	i	0.02
OCC1(CCc2ccccc2)CCCN(CCCC(F)(F)F)C1 (stereo not drawn)	i	-2
CC(=O)Nc1ccc(Nc2ncnc3c2cnn3-c2ccccc2)cc1	i	0.21
CCOC(=O)C(=NC(C)(C)C)NNc1cc(Cl)ccc1Cl	i	-1.8
CC(C)(C)NC(=O)CN1C(=O)NC(c2ccccc2)(c2ccccc2)C1=O	i	0.9
COC(=O)c1cccc(Oc2nc3c(c(=O)n(C)c(=O)n3C)n2Cc2ccc(C)cc2)c1	i	0.12
CCOC(=O)c1c(C)oc2ccc(OC(=O)c3cccs3)cc12	i	-0.06
COc1ccc(OC)c2c(=O)cc(C(=O)O)[nH]c12	i	-0.22
CCCCCCCN=C(C)c1ccccc1O	i	-0.64
O=C(Nc1ccccc1F)NC1CCCc2ccccc21 (stereo not drawn)	i	0.04
COc1ccc2c(c1)c(C(=O)N/N=C/c1ccccc1Cl)c(C)n2C	i	0.04
